TSHR ag – agonists of human thyroid stimulating hormone receptor. P16473. HEK293-CNG-TSHR cells (CNG channel as cAMP sensor), membrane potential dye, cAMP. Potency, µM (series often up to 57.1 µM), for the others: at the top dose activation, actives largely listed as activators. hit rate 0.48% among 73,000. AID 926; active = well fitted activation curve of enough size with the parental cells flat; inconclusive = any curve in the parental cells; inactive = parental cells flat and receptor cells flat or falling; further: potency means the concentration at half of the fitted maximal effect; % of control where 0% means no effect; weak receptor curves with flat parental cells got no call and are not listed
Target sequence (P16473 whole entry, looked up): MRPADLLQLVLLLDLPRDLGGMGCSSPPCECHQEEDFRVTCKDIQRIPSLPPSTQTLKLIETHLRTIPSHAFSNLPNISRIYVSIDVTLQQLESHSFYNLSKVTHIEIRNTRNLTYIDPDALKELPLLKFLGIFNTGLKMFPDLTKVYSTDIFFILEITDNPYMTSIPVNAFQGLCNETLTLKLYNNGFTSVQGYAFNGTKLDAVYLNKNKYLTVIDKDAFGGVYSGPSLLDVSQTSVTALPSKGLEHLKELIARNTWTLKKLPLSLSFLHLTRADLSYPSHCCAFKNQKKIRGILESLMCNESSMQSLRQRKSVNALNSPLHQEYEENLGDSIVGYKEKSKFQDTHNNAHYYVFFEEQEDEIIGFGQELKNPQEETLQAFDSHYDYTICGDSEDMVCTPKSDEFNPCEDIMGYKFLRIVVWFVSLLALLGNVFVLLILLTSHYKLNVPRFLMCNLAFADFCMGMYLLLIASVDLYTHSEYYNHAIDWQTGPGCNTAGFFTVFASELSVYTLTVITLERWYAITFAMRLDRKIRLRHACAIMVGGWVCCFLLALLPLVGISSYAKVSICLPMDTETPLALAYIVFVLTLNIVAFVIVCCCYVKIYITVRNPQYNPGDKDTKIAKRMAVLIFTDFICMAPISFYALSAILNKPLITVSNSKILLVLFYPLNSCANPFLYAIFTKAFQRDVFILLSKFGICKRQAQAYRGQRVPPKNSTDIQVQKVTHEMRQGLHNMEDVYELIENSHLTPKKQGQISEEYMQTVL
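cAMP rise detected as CNG-channel membrane depolarization by fluorescent dye (emission 590 nm), 30 min after compound, following 60 min dye loading containing 100 uM RO 20-1724 at room temperature. Cells: TSHR/CNG HEK 293, with parental CNG HEK 293 as control.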
A488 autofl – compound autofluorescence in A488 spectral region | compound autofluorescence, A488 spectral region, dye equivalency; hits give high values | max dye equivalency, M | hit rate 0.1% among 59,000 | AID 591; active = above 10 nM dye equivalent; inconclusive = 1 to 10 nM; inactive = 1 nM or less; about half of its hits are not listed in these tables;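 further: highest value over a series up to 38 µM; compound alone in buffer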
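Intrinsic compound fluorescence is measured in 100 mM Tris buffer at pH 8.0 following 15 min incubation at room temperature. Intensities at 480 nm excitation/540 nm emission are calibrated to an on-plate A488 concentration series, giving dye-equivalent concentrations.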
Resorufin autofl – resorufin region autofluorescence; Compound fluorescence, resorufin region 547/598 nm, buffer; hits give high values; max dye-equivalent concentration, M; hit rate 0.04% among 59,000; AID 588; active = above 10 nM dye equivalent; inconclusive = 1 to 10 nM; inactive = 1 nM or less; a few of its hits are not listed in these tables; further: highest value over a series up to 38 µM
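Tris 100 mM pH 8.0; compound added, 15 min RT; CCD imager read, ex 547 nm/em 598 nm; signal normalized to resorufin standard curve (six concentrations per plate) as dye-equivalent concentration.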
AID923 – qHTS Assay for Allosteric/Competitive Inhibitors of Caspase-1: Spectroscopic Profiling in AFC Spectral Region; compound fluorescence, AFC spectral region (405/520 nm); almost no hit is shown here; Potency, µM (series often up to 57.5 µM), without a hit: at the top dose fluorescence increase, actives largely listed as activators; hit rate 1.1% among 75,000; AID 923, 2007; active means well fitted activation curve with a large enough effect; inconclusive means small, poorly fitted or top-dose-only effect;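 further: potency means the concentration at half of the fitted maximal effect; 0% is about no effect; scaled to a free AFC standard on each plate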
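Titrations up to 57 uM read every 20 sec for 3 min (405/520 nm) with 50 nM caspase 1 and 5 uM Ac-WEHD-AFC, pH 7.5 HEPES buffer. Fluorescence-vs-time intercept gave baseline, scaled against on-plate AFC standard.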
A647 fluor – compound fluoresces in the A647 spectral region; Compound fluorescence, A647 channel (570/671 nm), Tris buffer; max dye-equivalent concentration, M; 59,000 tested, under 10 active; AID 592; active means above 1 µM dye equivalent; inconclusive means 0.1 to 1 µM; inactive means 0.1 µM or less;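 further: values scaled relative to a standard on each plate; highest value over a series up to 38 µM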
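Compounds pinned into 100 mM Tris pH 8.0, 15 min at room temperature, then read with 570 nm excitation/671 nm emission filters. Fluorescence normalized to an on-plate six-point Alexa 647 standard curve, giving dye-equivalent concentration per compound concentration.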
* hit, by the source's call; i = inactive; ? = inconclusive; / = not tested or not shown; [ ] = dose if it differs, or a comment. Some of the compounds tested; count on the stated rates, not on these rows.

Results follow in this order: TSHR ag	A488 autofl	Resorufin autofl	AID923	A647 fluor
CC(=O)Nc1ccc(N2C(=O)CSC2c2ccc(F)cc2)cc1 (stereo not drawn)
→ -2.6%	i	i	1.0%	3.9e-09
COc1ccc(-c2nn3c(-c4ccccc4)nnc3s2)cc1OC
→ /	i	i	-0.4%	4.52e-08
Cc1ccc2c(c1)c(-c1ccccc1)nc1nncn12
→ 2.4%	/	/	0.8%	/
COC(=O)c1ccsc1NC(=O)CSc1nnnn1Cc1ccccc1
→ 13.0%	i	i	-1.2%	2.99e-08
Brc1ccc(-c2nnc3n2-c2ccccc2CC3)cc1
→ ?	i	i	-0.4%	5.2e-09
O=C1CCN=C(Nc2ccc(F)cc2)N1Cc1ccccc1
→ 0.6%	i	i	-0.9%	4.4e-09
Cc1cccc(OCC(=O)Nc2ccc(N3CCCC3)cc2)c1C
→ -25.0%[11.4 µM]	/	/	2.8%	/
CCN(CC)C(=O)CSc1nnc(-c2ccco2)n1Cc1ccco1
→ -2.9%	i	i	1.4%	6.34e-08
CCOc1ccc(CNC(=O)C2CCN(S(=O)(=O)CC)CC2)cc1OC
→ 14.5%	i	i	0.3%	1e-09
COc1ccccc1NC(=O)CN1CCN(CC(=O)Nc2cc(NC(C)=O)ccc2OC)CC1
→ 0.9%	i	i	0.4%	2.4e-09
COc1ccc(C)cc1-n1nnnc1SCC(=O)c1cc(C)n(Cc2ccco2)c1C
→ 12.4%	i	i	1.5%	8.1e-09
CCc1cccc(OCC(=O)Nc2ccc(S(=O)(=O)Nc3onc(C)c3C)cc2)c1
→ 3.2%	/	/	0.5%	/
OCCNc1ncnc2c1ncn2[C@@H]1O[C@@H](CO)[C@H](O)[C@@H]1O
→ 5.3%[11.4 µM]	i	i	2.9%[11.5 µM]	1e-09
CCN(CC)CC(O)COc1ccccc1C(=O)CCc1ccccc1 (stereo not drawn)
→ ?	/	/	-0.4%	/
CN(CC(=O)NC1CCCCCCC1)S(=O)(=O)c1cccc2cccnc12
→ 26.9%	/	/	-0.7%	/
O=C(Nc1cccc(-c2nc3ncccc3o2)c1)c1cc2ccccc2o1
→ ?	/	/	5.8%	/
CC1Cc2ccccc2N1C(=O)Cn1c(=O)oc2cc(S(=O)(=O)NC3CCCC3)ccc21 (stereo not drawn)
→ -14.5%	/	/	1.0%	/
CCOc1cc(S(=O)(=O)N2CCN(c3ccc(F)cc3)CC2)c(OCC)cc1-n1cnnn1
→ -6.1%	i	i	0.3%	3.66e-08
CCn1c2ccccc2c2nc3cc(S(=O)(=O)N4CCOCC4)ccc3nc21
→ 23.4%	i	i	18.4%	3.1e-09
Cc1ccc2nc(C(O)C(O)c3nc4ccc(C)cc4[nH]3)[nH]c2c1 (stereo not drawn)
→ 1.3%	i	i	1.6%	5.6e-09
CC(C)(C)COS(=O)OCC(C)(C)C
→ -6.7%[11.4 µM]	i	i	5.8%[11.5 µM]	1e-09
CCN(C(=O)CCS(=O)(=O)c1ccc(Br)cc1)c1ccc2c(c1)OCO2
→ 2.3%	i	i	2.4%	3.08e-08
COc1ccc(-n2c(SCCC(=O)O)nnc2-c2ccncc2)cc1
→ -3.5%	i	i	-0.5%	1e-09
CCOc1ccc(N2C(=O)CC(n3nc(C)cc3C)C2=O)cc1 (stereo not drawn)
→ -2.1%	i	i	-2.8%	9.8e-09
CCOc1ccccc1C(=O)Nc1ccc(-c2nnc(-c3ccc(C)cc3)o2)cc1
→ 5.4%	i	i	-1.9%	1.06e-08
CC(Sc1nnc(Cn2c(=O)sc3ccccc32)n1C)c1ccccc1 (stereo not drawn)
→ ?	/	/	2.8%	/
Cc1cc(NC(=O)CSc2nc3c(c(=O)n(C)c(=O)n3C)n2C(C)C)no1
→ 0.6%	i	i	1.8%	1e-09
COc1cccc(CNC(=O)C2CCN(S(=O)(=O)c3cccc4cccnc34)CC2)c1
→ -1.0%	/	/	-2.6%	/
CC(N)C12CC3CC(C1)CC(C(C)N)(C3)C2 (stereo not drawn)
→ -11.3%	i	i	3.6%	1.3e-09
N[C@H](CS(=O)O)C(=O)O
→ ?	i	i	/	1.7e-09
O=S(=O)(NCC1CC1)c1cccc(S(=O)(=O)N2CCCC2)c1
→ 0.0%	i	i	-0.2%	3.84e-08
CCOC(=O)c1ccccc1NC(=O)Cn1cnc2c(cnn2C(C)(C)C)c1=O
→ 16.0%	i	i	-1.2%	1.09e-08
CC1CCN(Cc2nc(-c3ccccc3)no2)CC1
→ 11.6%	i	i	2.1%	1.81e-08
Cc1ccnc(NS(=O)(=O)c2ccc(NS(=O)(=O)Cc3ccccc3)cc2)n1
→ 1.1%	/	/	-0.8%	/
CCc1ccc(NC2=CC(=O)CC(c3ccco3)C2)cc1 (stereo not drawn)
→ -2.5%	/	/	1.3%	/
CN(C)CCCN1c2ccc3ccccc3c2Sc2cccc(Cl)c21
→ -0.9%[11.4 µM]	i	i	-1.9%[11.5 µM]	1e-09
COc1ccccc1Nc1nc(N)nc(-c2cc3ccccc3o2)n1
→ 17.4%	i	i	1.3%	7e-09
COc1ccc(C(=O)c2cn[nH]c2-c2cc(Cl)ccc2O)cc1
→ -9.4%	/	/	2.9%	/
Cc1ccc(NC(=O)Cc2nn(C)c(=O)c3ccccc23)cc1F
→ ?	i	i	-1.1%	1e-09
O=C(OCCCCN1C(=O)c2ccccc2C1=O)c1ccc(S(=O)(=O)N2CCCC2)cc1
→ -0.5%	i	i	-3.0%	7.35e-08
Cc1ccc(S(=O)(=O)N(CC(O)CN2CCCCC2)c2ccccc2)cc1 (stereo not drawn)
→ -1.3%	/	/	2.5%	/
CC(C)(C)NC(=O)C1CC(=O)OC1(C)C (stereo not drawn)
→ -4.0%	i	i	2.2%	2.51e-08
CCOC(=O)c1oc2ccccc2c1NC(=O)c1ccccc1OC
→ ?	i	i	-0.6%	6.5e-09
CCOc1ccc(NC(=O)Nc2ccc3c(c2)nnn3C)cc1
→ 2.1%	i	i	1.6%	3.44e-08
CCOCCSc1nnc2nc(C)cc(C)n12
→ 4.4%	i	i	2.1%	1e-09
CCOC(=O)c1c(C)[nH]c(C(C)=O)c1C
→ 8.9%	/	/	1.2%	/
Cn1ccnc1SCC(=O)Nc1ccc(Oc2ccccc2)cc1
→ -0.6%	i	i	-1.3%	1e-09
Cc1nc2scc(-c3ccccc3)c2c(=O)n1N
→ -0.9%	i	i	0.3%	1e-09
O=C(c1csnn1)N1CCC2(CCCN(c3ccc(-c4ccccc4)cc3)C2)CC1
→ -1.7%	i	i	-1.6%	1e-09
C=CCn1c(COc2ccccc2)nnc1SCc1ccc(C#N)cc1
→ 25.9%	i	i	1.5%	2.4e-09

Going on with the list:
Results follow in this order: TSHR ag	A488 autofl	Resorufin autofl	AID923	A647 fluor
Cc1ccc(C)c(CN2CCNC2=O)c1
→ -4.2%	i	i	-1.4%	2.2e-09
O=C(NCC1CCCO1)c1ccc(CS(=O)(=O)c2ccc(Br)cc2)o1 (stereo not drawn)
→ 0.0%	/	/	-3.8%	/
CCOc1ccc2[nH]c(C)c(CN(C)C)c(=O)c2c1
→ -4.2%[11.4 µM]	/	/	-0.9%	/
CN1C(=O)C2(c3ccccc31)C1CCCC=C1C(C#N)=C(N)C2(C#N)C#N (stereo not drawn)
→ /	i	i	/	9.39e-08
Cc1ccc(N2C(=O)C3ON(c4ccccc4)C(c4ccncc4)C3C2=O)c(C)c1 (stereo not drawn)
→ /	i	i	/	1e-09
NC(=O)C1(N2CCCCC2)CCN(C(=O)CSc2nc3ccccc3[nH]2)CC1
→ 0.3%	i	i	4.3%	1e-09
CCn1c(SCCC(=O)Nc2ccccc2)nnc1-c1ccc(OC)cc1
→ 0.8%	i	i	-0.4%	1e-09
CC(=O)N1CCc2cc(S(=O)(=O)NCCC(=O)Nc3cccc(C)c3C)ccc21
→ -4.0%	i	i	3.3%	6.9e-09
Cc1ccc(N(CN2C(=O)C3CC=CCC3C2=O)C(=O)c2ccco2)cc1Cl (stereo not drawn)
→ /	i	i	/	4.62e-08
C=C1c2cc(OC)ccc2NC(=O)N1CC
→ /	i	i	/	5.54e-08
CC(C)(C)c1nnc(NC(=O)CN2C(=O)C3C4C=CC(C4)C3C2=O)s1 (stereo not drawn)
→ -3.1%	i	i	0.7%	1.82e-08
CCN(c1cccc(C(F)(F)F)c1)S(=O)(=O)c1ccc2c(c1)CCN2C(=O)C1CC1
→ ?	i	i	-0.2%	1.95e-08
CCC(=O)Nc1nnc(CSCc2ccccc2)s1
→ -3.1%	i	i	-0.6%	2.8e-09
COc1cccc(NC(=O)/C=C\c2ccc(Cl)cc2)c1
→ ?	/	/	-1.0%	/
COC(=O)c1ccc2c(=O)n(CCO)c(=S)[nH]c2c1
→ 8.0%	i	i	1.4%	9e-09
COc1ccc(S(=O)(=O)NCCCCCC(=O)NCCCN2CCOCC2)cc1
→ 2.1%	i	i	0.7%	1e-09
c1nc(NC2CC2)c2cc(-c3ccoc3)ccc2n1
→ 7.4%	i	i	4.8%	4.69e-08
NC(=O)CS(=O)(=O)c1nc2ccccc2n1CC(=O)N1CCCCC1
→ 1.6%	i	i	-1.8%	6.4e-09
O=C(Oc1ccc(-n2cnnn2)cc1)c1ccco1
→ -1.2%	i	i	-1.2%	1e-09
COC(=O)c1ccccc1NC(=O)C1CCCN(S(C)(=O)=O)C1 (stereo not drawn)
→ 0.8%	i	i	1.2%	1e-09

Complete entries, quoted from the list. Order of values: TSHR ag | A488 autofl | Resorufin autofl | AID923 | A647 fluor
Listed for `COC(=O)c1ccccc1NC(=O)C1CCCN(S(C)(=O)=O)C1` (stereo not drawn) : 0.8% | i | i | 1.2% | 1e-09
Listed for `O=C(Oc1ccc(-n2cnnn2)cc1)c1ccco1` : -1.2% | i | i | -1.2% | 1e-09

Continuation.
Results follow in this order: TSHR ag	A488 autofl	Resorufin autofl	AID923	A647 fluor
CCCNC(=O)OC[C@@H]1O[C@H](CCON=C(C)C)C=C[C@@H]1Oc1ccc(OC)cc1
→ 3.1%[11.4 µM]	/	/	1.1%[11.5 µM]	/
Cc1cc(-n2nc(C)cc2C)nc(NS(=O)(=O)c2ccccc2)n1
→ 13.6%	/	/	-1.3%	/
Cc1nc2cc(-n3ccc(=O)cc3)ccc2n1-c1ccccc1
→ 0.5%	i	i	-0.5%	3.29e-08
COC(=O)C1=C(C)NC(C)=C(C(=O)OC)C1c1cc2cc(C)ccc2[nH]c1=O
→ 5.2%	i	i	4.2%	1.8e-09
COc1ccc(C(C#N)C2(C)OCCO2)cc1OC (stereo not drawn)
→ 7.1%	/	/	0.8%	/
Cn1c(OCc2ccco2)nc2c1c(=O)n(Cc1ccc(Cl)c(Cl)c1)c(=O)n2C
→ /	i	i	/	8.04e-08
COc1ccccc1-c1cc(C(=O)Nc2cc(C)on2)no1
→ 5.6%[11.4 µM]	i	i	1.6%	2.6e-09
CCc1ccc(N2CCCn3c2nc2c3c(=O)n(CCN3CCOCC3)c(=O)n2C)cc1
→ -14.2%	i	i	3.0%	2.34e-08
COC(=O)c1nn2c(C(F)(F)F)cc(-c3ccc(Br)o3)nc2c1Br
→ /	i	i	/	4.69e-08
COc1cccc(N(CC(=O)NCc2cccnc2)S(C)(=O)=O)c1
→ 0.6%	/	/	-3.2%	/
COc1cccc(Nc2ncc3nc(CCc4ccccc4)c(=O)n(C)c3n2)c1
→ 8.9%	i	i	?	6.6e-09
Cn1c(N2CCC(C(N)=O)CC2)nc2c1c(=O)n(Cc1cccc(Br)c1)c(=O)n2C
→ -11.5%	i	i	-1.1%	8.4e-09
